# Measles inh: inhibitors of measles virus growth in cells, primary screen, measles RdRp inhibitor project, cell-based, single point, HTS; z-score (concentration not given with the values); AID 745, 2007; actives 0.1% (n = 33,000); infected Vero cells, GFP fluorescence, 64 h; active compounds read low;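 active = z-score under -3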;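 also: score is relative to mean and SD of the compound wells of a plate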
# Numbers without * were called inactive. Some of the compounds tested; the hit share may differ from the screen's.
SMILES,Measles inh
O=C(c1ccc2c(c1)OCCO2)c1ccccc1Cl,-0.58
N#Cc1cccc(N=c2oc3ccc(Br)cc3cc2-c2nc3ccccc3[nH]2)c1,0.39
O=C1c2[nH]nc(-c3ccccc3)c2C(c2ccc(F)cc2)N1c1ccccc1 (configuration not stated),-0.29
COc1cc(OC)cc(-c2nnc(NC(=O)c3ccc(S(=O)(=O)N4CCC(C)CC4)cc3)o2)c1,-0.9
O=C(O)c1c[nH]c2c(C(=O)O)cccc2c1=O,1.8
COc1ccc(C(=O)Nc2nc3ccc(S(C)(=O)=O)cc3s2)cc1[N+](=O)[O-],0.46
COc1ccc(C)cc1N1C(=S)NC(C)(C)C=C1C,-0.51
CC1CCCCC1Nc1nc(-c2ccccc2F)nc2ccccc12 (configuration not stated),-0.17
O=C(CC(c1ccccc1)C1([N+](=O)[O-])C(=O)c2ccccc2C1=O)c1ccccc1 (configuration not stated),0.1
O=C1CSC(c2cc3c(cc2[N+](=O)[O-])OCO3)N1c1cccc(F)c1 (configuration not stated),-1
CCc1ccc2nc(N3CCCC(C(=O)NC4CCCCC4)C3)sc2c1 (configuration not stated),-0.62
O=C(NCc1cccnc1)c1cc2ccccc2c(=O)o1,1.6
OCCN1CCN(C2CCN(C3CCCCCC3)CC2)CC1,-0.92
CC1=C(C(=O)OCC(C)C)C(c2ccccc2Br)N2C(=O)CCSC2=N1 (configuration not stated),-0.51
CC1CCCCC1NC(=O)c1cc(=O)[nH]c2ccc(S(=O)(=O)N3CCCCC3C)cc12 (configuration not stated),-0.5
CCOc1ccc(NC(=O)c2ccc(C(F)(F)F)cc2)cc1,0.19
Cc1cccc(NS(=O)(=O)c2cccnc2)c1,0.33
CC(C)c1ccc(NS(=O)(=O)c2ccc3[nH]cc(C(=O)NC4CCCC4)c(=O)c3c2)cc1,-2.2
O=S1(=O)N=C(Nc2ccc3c4c(cccc24)CC3)c2ccccc21,-0.04
O=C(Cc1cccs1)N1CCN(S(=O)(=O)c2cccc([N+](=O)[O-])c2)CC1,-0.11
CCCNC(=O)Nc1nc(CC(=O)OCC)cs1,-0.6
COc1ccc(C)cc1NC(=O)c1nn(-c2ccccc2OC)c(=O)c2ccccc12,-0.82
CCC12CN3CC(CC)(CN(C1)C3c1ccc(C(C)C)cc1)C2=O (configuration not stated),-0.69
C=CCNC(=O)c1ccc2nc(-c3ccco3)c(-c3ccco3)nc2c1,-0.74
CCN(CC)S(=O)(=O)N1CCCC(C(=O)NCCC2=CCCCC2)C1 (configuration not stated),-0.59
O=C(Nc1cc(SCCO)cc([N+](=O)[O-])c1)c1ccc2c(c1)OCO2,-1
COc1cc(C2Nc3ccccc3NC3=C2C(=O)CC(c2cccs2)C3)cc(Cl)c1O (configuration not stated),1.3
O=C(Nc1c2c(nn1-c1cccc(Cl)c1)CS(=O)C2)c1ccccc1F (configuration not stated),-0.49
COc1ccc(NC(=O)Cn2c(=O)n(-c3ccccc3)c(=O)c3c4c(sc32)CCCC4)cc1OC,-0.24
Cc1ccc(Cl)cc1N1CCN(C(=O)CC(C(=O)N2CCc3ccccc32)n2ccnc2)CC1 (configuration not stated),-0.99
O=C(Cn1cnc([N+](=O)[O-])n1)C1CC1,0.05
Cc1ccccc1-c1nc2cc(Cl)ccc2o1,-0.34
CCOC(=O)c1sc(NC(=O)c2cc(Cl)ccc2[N+](=O)[O-])nc1C,0.12
N#Cc1c(NC(=O)c2cccs2)sc2c1CCCC2,-0.99
COc1ccc(N=C2c3ccccc3-c3nc4ccccc4nc32)cc1,-1.5
CC(=O)c1ccc(NC(=O)c2cnc3ccccc3n2)cc1,0.5
O=C(Nc1cccnc1)c1cc(Br)ccc1OCc1ccccc1Cl,-0.52
CC(=O)OCC1OC(n2ccc(=O)[nH]c2=O)CC1OC(C)=O (configuration not stated),0.09
COc1ccccc1NC(=O)CSc1oc(-c2ccc(F)cc2)nc1S(=O)(=O)c1ccc(C)cc1,0.54
C#CCN(CC#C)c1ccc([N+](=O)[O-])cc1,1.4
COc1ccc(C2C3=C(CC(C)(C)CC3=O)Nc3ccccc3N2C(=O)c2ccc(Br)cc2)cc1 (configuration not stated),-1.9
Cc1ccc(C)n1-c1ccc(-c2ccc(-n3c(C)ccc3C)cc2)cc1,-1.3
Clc1ccc(C2C=C(c3ccccc3)Nc3nnnn32)cc1 (configuration not stated),1
O=C(NC(Cc1ccccc1)c1nc2ccccc2[nH]1)c1ccccc1 (configuration not stated),0.06
Cc1ccc2nc(-c3ccc(NC(=O)c4ccco4)cc3)sc2c1,-0.43
CCOc1ccccc1NC(=O)COc1cccc(Cl)c1,-0.84
COc1ccc(-n2cnc3cc(C(=O)NCc4ccccn4)ccc32)cc1,0.31
CCOC(=O)c1c(NC(=O)C(C)Oc2ccc(OC)cc2)sc(C)c1C (configuration not stated),-0.35
NC(=O)CN1CCN(CC(=O)Nc2ccc(Cl)cc2)CC1,-0.41
CC(=O)OCCCNc1nc(-c2ccc(Cl)cc2)nc2ccccc12,-0.03

# (next part)
SMILES,Measles inh
Cc1c(NC(=O)COc2ccccc2[N+](=O)[O-])c(=O)n(-c2ccccc2)n1C,1.2
Cc1ccc2nc(C)cc(NCCO)c2c1,-0.37
COc1cccc(C(=O)Nc2ccc(S(=O)(=O)Nc3ncccn3)cc2)c1,0.14
CCCCCn1cnc2c1c(=O)[nH]c(=O)n2C,-0.72
COc1cccc(C=Nc2nnc(C)s2)c1O,3.9
COC(=O)C1=C(C)NC(=S)NC1c1ccc(OCc2ccccc2)cc1 (configuration not stated),-1.1
COC(=O)C1=C(C)NC2=C(C(=O)CCC2)C1c1ccc(C(C)C)cc1 (configuration not stated),-0.2
CCOc1ccccc1NC(=O)CCS(=O)(=O)c1ccc(OC)cc1,-0.24
COc1ccc(N(CCC#N)S(=O)(=O)c2ccc(Cl)cc2)cc1,-0.27
COC(=O)c1c(C)oc2cc(Br)c(OCc3cccc(Cl)c3)cc12,1.3

# Entries from the list above that have a furan ring, fused or not (3):
SMILES,Measles inh
C=CCNC(=O)c1ccc2nc(-c3ccco3)c(-c3ccco3)nc2c1,-0.74
Cc1ccc2nc(-c3ccc(NC(=O)c4ccco4)cc3)sc2c1,-0.43
COC(=O)c1c(C)oc2cc(Br)c(OCc3cccc(Cl)c3)cc12,1.3

# Remaining list, next part
SMILES,Measles inh
CCOC(=O)c1nn2c(C(F)(F)F)cc(-c3ccc(Br)cc3)nc2c1Br,0.37
COc1ccc(-c2cnnn2-c2ccc(NC(=O)c3ccc4c(c3)OCO4)cc2)cc1OC,0.12
CNC(=O)c1cc2c(=O)n3ccccc3nc2n(CCOC)c1=N,0.7
CCCn1c(CCNC(=O)c2ccc(F)cc2)nc2ccccc21,0.44
O=C(Nc1ccc2oc(-c3ccc4ccccc4c3)nc2c1)c1ccc(Cl)c([N+](=O)[O-])c1,-0.88
C=C(C)CSc1nc2sc3c(c2c(=O)[nH]1)CCCC3,1.3
CCOC(=O)CC1C(=O)NN=C1C (configuration not stated),-0.22
CCCCNC(=O)CCCn1c(=S)[nH]c2ccc(Br)cc2c1=O,-0.94
CC(C)c1ccc(-c2csc(NC(=O)c3ccc(Cl)cc3)n2)cc1,-0.73
CCN(c1ccccc1)S(=O)(=O)c1ccc(C(=O)Nc2nnc(COC)o2)cc1,-0.31
O=C(c1ccc([N+](=O)[O-])cc1)N1CCN(c2ccc([N+](=O)[O-])cc2)CC1,0.32
Cc1cc(C)nc(SCC(=O)N2c3ccccc3Sc3ccc(Cl)cc32)n1,-0.25
Cc1ccc([N+](=O)[O-])cc1S(=O)(=O)n1nnc2ccccc21,0.02
CCCCc1ccc(NCc2nc(-c3ccc(C)cc3)no2)cc1,0.69
COc1ccc(C(=O)NCc2n[nH]c(=S)n2-c2ccccc2)c(OC)c1,-0.83
CCC(Sc1nc2cc(OC)c(OC)cc2c2nc(C)nn12)C(=O)Nc1cccc(C)c1 (configuration not stated),1.2
N#CC1(c2ccccc2)CCc2c(sc3ncnc(N4CCCC4)c23)C1 (configuration not stated),0.18
COc1cc(C2NC(=O)NC(C)=C2C(=O)OC2CCCC(C)C2)ccc1O (configuration not stated),-1.1
Cc1cc(OC(C)C(=O)N2CCN(Cc3ccc4c(c3)OCO4)CC2)ccc1Cl (configuration not stated),-0.61
CC(C)OC(=O)c1cccc(C(=O)Oc2ccccc2)n1,-0.13
Cc1ccc(S(=O)(=O)NC(=O)c2ccc(Cl)cc2)cc1,1.2
CCCCCCCOC(=O)C1=C(C)Nc2nc3ccccc3n2C1c1cccnc1 (configuration not stated),0.31
COc1ccc(NC(=O)CCn2c(=S)oc3ccccc32)c([N+](=O)[O-])c1,0.89
CC1CCN(S(=O)(=O)c2ccc(C(=O)Nc3cccc(-c4nc5ccccc5[nH]4)c3)cc2)CC1,-0.14
Cc1ccccc1Nc1nc(-c2ccc(C)c([N+](=O)[O-])c2)cs1,-0.97
CCOC(=O)c1nn(-c2cccc(C)c2)cc1C(=O)c1ccc(Cl)cc1,0.19
O=C(Nc1ccc([N+](=O)[O-])cc1Br)c1cccc(C(=O)Nc2ccc([N+](=O)[O-])cc2Br)n1,0.23
CCN(CC)C(=O)c1cc2c(n(-c3ccc(C)cc3)c1=O)CCCC2=O,-1.7
COCCN1C(=O)C(=O)/C(=C(/O)c2ccccc2)C1c1cc(OC)ccc1OC (configuration not stated),0.89
O=C(Cc1ccccc1)Nc1cccc(NC(=O)c2ccccc2Cl)c1,-1.7
Cc1csc(NC(=O)Cc2nn(C)c(=O)c3ccccc23)n1,-0.54
CC(=O)Nc1ccc2oc(-c3ccc(Br)c(C)c3)nc2c1,-0.39
CCCCN(Cc1ccccc1)C(=O)c1[nH]c(C)c(C(C)=O)c1C,0.73
CNc1nnc(Cl)c2ccccc12,-0.18
COC(=O)CSc1sc(=O)sc1SCC#N,-1.2
Cn1c(NCc2cc(Br)ccc2O)nc2ccccc21,-1.8
COc1ccc2cc(C3CC(c4ccc(Br)cc4)=NN3S(C)(=O)=O)c(Cl)nc2c1 (configuration not stated),-0.19
Oc1ccc(C=Nc2c(-c3ccco3)nc3ccc(Cl)cn23)cc1,-0.43
CCN(CC)c1ccc(C=Nc2ccc([N+](=O)[O-])cc2C)cc1,-0.7
Cc1cc(C)cc(Oc2coc3cc(OCc4cccc(Cl)c4)ccc3c2=O)c1,-0.11

# Ordered by length of the SMILES (ascending): some entries from above.
SMILES,Measles inh
CNc1nnc(Cl)c2ccccc12,-0.18
COC(=O)CSc1sc(=O)sc1SCC#N,-1.2
Cn1c(NCc2cc(Br)ccc2O)nc2ccccc21,-1.8
CC(C)OC(=O)c1cccc(C(=O)Oc2ccccc2)n1,-0.13
Cc1csc(NC(=O)Cc2nn(C)c(=O)c3ccccc23)n1,-0.54
Oc1ccc(C=Nc2c(-c3ccco3)nc3ccc(Cl)cn23)cc1,-0.43
CCCCN(Cc1ccccc1)C(=O)c1[nH]c(C)c(C(C)=O)c1C,0.73
CCCCCCCOC(=O)C1=C(C)Nc2nc3ccccc3n2C1c1cccnc1 (configuration not stated),0.31
Cc1ccccc1Nc1nc(-c2ccc(C)c([N+](=O)[O-])c2)cs1,-0.97
CCOC(=O)c1nn(-c2cccc(C)c2)cc1C(=O)c1ccc(Cl)cc1,0.19
Cc1cc(C)cc(Oc2coc3cc(OCc4cccc(Cl)c4)ccc3c2=O)c1,-0.11
Cc1cc(OC(C)C(=O)N2CCN(Cc3ccc4c(c3)OCO4)CC2)ccc1Cl (configuration not stated),-0.61
COCCN1C(=O)C(=O)/C(=C(/O)c2ccccc2)C1c1cc(OC)ccc1OC (configuration not stated),0.89
COc1ccc(NC(=O)CCn2c(=S)oc3ccccc32)c([N+](=O)[O-])c1,0.89
COc1ccc2cc(C3CC(c4ccc(Br)cc4)=NN3S(C)(=O)=O)c(Cl)nc2c1 (configuration not stated),-0.19
CC1CCN(S(=O)(=O)c2ccc(C(=O)Nc3cccc(-c4nc5ccccc5[nH]4)c3)cc2)CC1,-0.14
O=C(Nc1ccc([N+](=O)[O-])cc1Br)c1cccc(C(=O)Nc2ccc([N+](=O)[O-])cc2Br)n1,0.23

# (cont.)
SMILES,Measles inh
CCOc1ccc(-n2nc3ccc(NC(=O)c4ccc(C)c([N+](=O)[O-])c4)cc3n2)cc1,1.6
COc1ccc2cc3cc(C(=O)NCc4ccc(C)cc4)oc3nc2c1,-1.2
CCOc1ccc2c(c1)sc(=NC(=O)C1CC1)n2C,-1.1
O=C(Nc1c2c(nn1-c1cccc(Cl)c1)CS(=O)(=O)C2)c1cc([N+](=O)[O-])ccc1Cl,0.05
COc1cccc(NS(=O)(=O)c2ccc3[nH]cc(C(=O)N4CCc5ccccc54)c(=O)c3c2)c1,1.1
O=C1C2C(C(=O)N1c1ccc3c(c1)OCO3)C1C=CC2C12CC2 (configuration not stated),0.83
COc1ccc(CCNS(=O)(=O)c2cccs2)cc1OC,0.2
N#Cc1c(NC(=O)c2ccc(Br)c(S(=O)(=O)N3CCOCC3)c2)sc2c1CCCC2,0.65
CCC1(C)Cc2nc3[nH]c(=S)n(-c4ccccc4C)c(=O)c3cc2CO1 (configuration not stated),-0.51
CCCCOc1ccc2c(=O)c(Oc3cccc(C)c3)coc2c1,-1.4
COc1ccc2nc(SCc3cccc(I)c3)[nH]c2c1,-0.8
CCn1cc(C(=O)N2CCN(c3ccccc3)CC2)c(=O)c2cc(S(=O)(=O)N3CCCC3)ccc21,1
CCCN1C(=O)CN(C2CCCCCC2)C(=O)C1c1ccc(OCC)c(OC)c1 (configuration not stated),-0.55
COCCNc1nc(SCC(=O)c2ccccc2)nc2ccccc12,-0.53
O=C(O)C1CCCCC1C(=O)N1CCN(c2ccc([N+](=O)[O-])cc2)CC1 (configuration not stated),-0.3
O=C(Nc1nc2ccccc2s1)c1ccc(NC(=O)C23CC4CC(CC(C4)C2)C3)cc1,1.3
Cc1cc([N+](=O)[O-])c(N2CCOCC2)cc1N,0.09
Cc1ccc(-n2nc3cc(C)c(NC(=O)c4ccc(Br)cc4)cc3n2)cc1,-0.43
Cc1ccc(SCC(=O)Nc2ccc(Oc3ccc4c(c3)C(=O)N(Cc3ccco3)C4=O)cc2)cc1,-1.1
COc1cccc(C2C3=C(NCCN=C3c3ccc(Cl)cc3)C(=O)N2c2ccccc2)c1 (configuration not stated),-2.2
Cc1cc(NC(=O)CCCc2ccccc2)nc2c1c(=O)oc1ccccc12,1.9
COc1ccccc1C1C(C(=O)OC2CCCCC2)=C(C)Nc2nnnn21 (configuration not stated),-1.8
Cc1cc(C)nc(/N=C(\N)Nc2cccc(F)c2)n1,0.35
COc1cc2nc(SCC(=O)Nc3ccccc3F)n3nc(-c4ccccc4)nc3c2cc1OC,0.54
COC(=O)Cn1nc(-c2ccccc2)c2ccccc2c1=O,-1.3

# From PubChem
